Bioassay records as filed in PubChem BioAssay.
NS1 inh: blocks influenza NS1 protein function; S. cerevisiae slowed by influenza A NS1, growth recovery by OD600; Potency, µM (highest dose often 46.1 µM), for inactives: top-dose activity, positive = more growth; actives 0.4% (n = 270,000); active means well fitted rising curve with a large enough effect; inconclusive means small, poorly fitted or top-dose-only effect; inactive means no such curve, though single readings can be large or run the other way; further: nearly all actives have a fitted effect of over 50% in size
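OD600 was taken as the measure of yeast growth restored by compound in an NS1-expressing S. cerevisiae strain. Cells had been washed out of glucose medium and diluted 1:100 into galactose -URA medium, pH 6.0.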
RE007 growth inh: less growth of the S. pombe RE007 Vpr strain; S. pombe RE007 Vpr strain, BacTiter-Glo ATP luminescence, 24 h; control for the full effect not named in the record; Potency, µM (titrated, usually from 92.2 µM), without a hit: at the highest dose activity change, negative = less growth; actives 0.21% (n = 360,000); AID 651644; active = well fitted falling curve with a large enough effect; inconclusive = small, poorly fitted or top-dose-only effect; inactive = no such curve, though single readings can be large or run the other way;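 further: on the % scale 0 is the no-effect control and ±100 the full control effect; nearly all actives have a fitted effect of over 50% in size; the assay follows cell death caused by Vpr and the record does not say whether a fall means rescue or toxicity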
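Fission yeast RE007 carrying one integrated HIV-1 vpr copy, seeded at OD 0.01 in PMG+AL medium with 23 nL pinned compound. Grown 24 h at 30 degrees; viability read by BacTiter-Glo luminescence after 5 min.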
SARS PLP yeast: blocks SARS-CoV papain-like protease in a yeast assay. Potency, µM (series often up to 32.9 µM), without a hit: at the highest dose activity, positive = growth rescue. AID 485353. actives 0.19% (n = 330,000). S. cerevisiae expressing SARS-CoV PLpro, growth rescue; control for the full effect not named in the record; active means well fitted rising curve with a large enough effect; inconclusive means small, poorly fitted or top-dose-only effect; inactive means no such curve, though single readings can be large or run the other way; further: 0% is about no effect; nearly all actives have a fitted effect of over 55% in size; growth read by luminescence after 48 h
Marburg entry inh: Marburg virus entry inhibition; Marburg virus pseudotyped entry inhibition, cell reporter; control for the full effect not named in the record; about a third of the inactives were read at about 46 µM; Potency, µM (series often up to 37.8 µM), for the others: at the highest dose activity change, negative = inhibition, hits mostly inhibitors; actives 1.8% (n = 300,000); AID 540276; active = well fitted inhibition curve with a large enough effect; inconclusive = small, poorly fitted or top-dose-only effect, or effect the other way; inactive = flat fitted curve, though single readings scatter; tested in HEK293 cells; about a fifth of its hits are not listed in these tables; further: on the % scale 0 is the no-effect control and ±100 the full control effect; luciferase read-out
LASV entry inh: inhibitors of Lassa virus binding or cell entry; Lassa virus pseudotype entry inhibition, cell reporter; control for the full effect not named in the record; Potency, µM (highest dose often 37.9 µM), without a hit: at the highest dose activity change, negative = inhibition, most hits filed as inhibitors; actives 1.2% (n = 300,000); active means well fitted inhibition curve with a large enough effect; inconclusive means small, poorly fitted or top-dose-only effect, or effect the other way; inactive means flat fitted curve, though single readings scatter; tested in HEK293 cells; further: on the % scale 0 is the no-effect control and ±100 the full control effect; nearly all actives have a fitted effect of over 50% in size; luciferase read-out
Cruzain inh Det: inhibitors of Trypanosoma cruzi cruzain with detergent; Potency, µM, inactives show max response, negative = inhibition, hits mostly inhibitors; AID 1478; P25779; purified cruzain, Z-FR-AMC fluorescence, 0.01% Triton; actives 0.43% (n = 200,000);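 further: plate controls were neutral wells for no effect and buffer without enzyme for full effect; nearly all actives have a fitted effect of over 40% in size; top concentration of the series not given in the record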
Target sequence (P25779 123-467 limits assumed): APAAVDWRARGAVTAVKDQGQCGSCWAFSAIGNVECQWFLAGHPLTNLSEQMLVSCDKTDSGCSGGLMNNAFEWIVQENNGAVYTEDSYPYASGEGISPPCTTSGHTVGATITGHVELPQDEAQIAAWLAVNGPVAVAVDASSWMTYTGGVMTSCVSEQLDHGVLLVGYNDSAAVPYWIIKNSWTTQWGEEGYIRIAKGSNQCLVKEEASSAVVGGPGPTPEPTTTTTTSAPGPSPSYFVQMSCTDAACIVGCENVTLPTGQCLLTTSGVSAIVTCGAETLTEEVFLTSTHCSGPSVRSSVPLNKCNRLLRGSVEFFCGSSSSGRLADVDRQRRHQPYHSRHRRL
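Compounds were screened in titration against cruzain (1.5 nM) with 0.01% Triton X-100 to counter colloidal aggregation. Activity was the AMC fluorescence increase over 60 s after adding 2 uM Z-FR-AMC at pH 5.5.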
StopGo reporter: lowers the luciferase signal of an FMDV 2A StopGo reporter; Potency, µM (doses to about 57.9 µM), for inactives: at the highest dose signal change, negative = less light; human cells with a luciferase reporter of 2A StopGo recoding; control for the full effect not named in the record; actives 1.2% (n = 410,000); AID 1159524; active = well fitted falling curve with a large enough effect; inconclusive = small, poorly fitted or top-dose-only effect; inactive = no such curve, though single readings can be large or run the other way; tested in HEK293T cells; further: on the % scale 0 is the no-effect control and ±100 the full control effect; nearly all actives have a fitted effect of over 45% in size; luciferase light after 4 h
Cruzain inh noDet: cruzain (T. cruzi) inhibition without detergent. AID 1476. P25779. Potency, µM, inactives show max response, negative = inhibition, most hits filed as inhibitors. actives 2.3% (n = 200,000). purified cruzain, Z-FR-AMC fluorescence, no detergent;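 further: plate controls were enzyme without inhibitor for no effect and buffer without enzyme for full effect; nearly all actives have a fitted effect of over 40% in size; top concentration of the series not given in the record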
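Purified cruzain at 1.5 nM, pre-incubated 15 min with compound at room temperature in 100 mM sodium acetate pH 5.5, 5 mM DTT, 0.00005% Triton X-100. Reaction started with 2 uM Z-FR-AMC; AMC fluorescence increase over 60 s gives rate.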
Starred values were filed as active, the others as inactive; & = joins results of further samples; [ ] = dose if it differs, or a comment. Unless noted, the call rests on the fitted dose curve; in most records, active means well fitted curve in the direction sought with a large enough effect; inconclusive means small, poorly fitted or top-dose-only effect, or another doubt; inactive means no such curve, though single readings can be large; an effect the other way counts as inactive or inconclusive. Potency means the concentration at half of the fitted maximal effect.

What do the screens show for `Cc1cc(N(CCO)Cc2ccccc2)n2nc(-c3ccc(C(C)(C)C)cc3)nc2n1`?
Marburg entry inh: -14%[46.1 µM]; LASV entry inh: -20%[46.1 µM]; Cruzain inh Det: -3.9%; StopGo reporter: 0%; Cruzain inh noDet: inconclusive

Results for CCOc1cc(S(=O)(=O)NCC2OCCc3ccccc32)c(OCC)cc1-n1cnnn1 (centres undefined) ?
NS1 inh: 1%; RE007 growth inh: 6%; SARS PLP yeast: -6%; Marburg entry inh: 1%&1%; LASV entry inh: -14%; Cruzain inh Det: -6.7%; Cruzain inh noDet: inconclusive

How did CC1CCCCN1C(=O)COC(=O)c1cc([N+](=O)[O-])ccc1N1CCOCC1 (centres undefined) do in these assays?
RE007 growth inh: 18%; SARS PLP yeast: -3%; Marburg entry inh: inconclusive; LASV entry inh: 43%; StopGo reporter: 7%

Results for O=C1C(Cl)=C(NS(=O)(=O)c2ccc([N+](=O)[O-])cc2)C(=O)c2ccccc21 ?
NS1 inh: 1%; RE007 growth inh: -25%; SARS PLP yeast: 0%; Marburg entry inh: inconclusive; LASV entry inh: inconclusive; StopGo reporter: inconclusive

How did CCN(c1ccccc1)S(=O)(=O)c1ccc(Cl)c(NC(=O)CN2C(=O)NC3(CCCC3)C2=O)c1 do in these assays?
NS1 inh: -34%; RE007 growth inh: -3%; SARS PLP yeast: 1%; StopGo reporter: -11%

How did COc1ccc(C(=O)NCC(c2ccc(N(C)C)cc2)N2CCc3ccccc32)cc1 (centres undefined) do in these assays?
LASV entry inh: inconclusive; Cruzain inh Det: inconclusive; StopGo reporter: -18%; Cruzain inh noDet: 13µM*

Results for CCSc1nnc(NC(=O)C2CCN(S(=O)(=O)c3ccccc3C(F)(F)F)CC2)s1 ?
NS1 inh: -11%; RE007 growth inh: 1%; SARS PLP yeast: 6%; Marburg entry inh: 15%; LASV entry inh: 6%; Cruzain inh Det: -3.0%; StopGo reporter: -2%; Cruzain inh noDet: 9%

Results for COc1cc(/C=C/C(=O)OCC(=O)NC(=O)NC23CC4CC(CC(C4)C2)C3)ccc1OCC#N ?
NS1 inh: 24%; RE007 growth inh: 18%; SARS PLP yeast: -1%; Marburg entry inh: inconclusive; LASV entry inh: inconclusive; Cruzain inh Det: -7.6%; StopGo reporter: -27%; Cruzain inh noDet: inconclusive

How did CC(=O)c1cccc(NC(=O)N2CCCC(C(=O)c3cc(F)ccc3F)C2)c1 (centres undefined) do in these assays?
NS1 inh: 0%; RE007 growth inh: 0%; SARS PLP yeast: -1%; Marburg entry inh: -11%; LASV entry inh: inconclusive; StopGo reporter: -8%

Results for Cc1ccc(C(=O)NC(=S)Nc2ccc(Oc3ccc(Cl)cc3)cc2)cc1 ?
NS1 inh: 16%; RE007 growth inh: 5%; SARS PLP yeast: -8%; Marburg entry inh: -4%; LASV entry inh: -23%; Cruzain inh Det: 2.9%; StopGo reporter: inconclusive; Cruzain inh noDet: inconclusive

What do the screens show for `O=C(NCc1ccco1)C1CC(c2c(Cl)cccc2Cl)=NO1` (centres undefined)?
NS1 inh: 19%; RE007 growth inh: 5%; SARS PLP yeast: 0%; Cruzain inh Det: -5.8%; StopGo reporter: 26%; Cruzain inh noDet: -6%

Results for CCCn1c2ccccc2c2cnn(CC(=O)N3CCOCC3)c(=O)c21 ?
NS1 inh: -5%; RE007 growth inh: 26%; SARS PLP yeast: -10%; StopGo reporter: -25%

How did CC(C)(C)c1cc(C(=O)O)c(CN2CCCCC2)o1 do in these assays?
NS1 inh: -9%; RE007 growth inh: 5%; SARS PLP yeast: 0%; Marburg entry inh: 7%; LASV entry inh: 0%; Cruzain inh Det: -3.9%; StopGo reporter: -13%; Cruzain inh noDet: -5%

How did Cc1cccc(/C=N/NC(=O)c2cc3c(s2)-c2ccccc2CC3)c1 do in these assays?
NS1 inh: 2%; RE007 growth inh: -1%; SARS PLP yeast: -4%; Marburg entry inh: inconclusive; LASV entry inh: inconclusive; Cruzain inh Det: -9.6%; StopGo reporter: -12%; Cruzain inh noDet: inconclusive

What do the screens show for `CC(C)c1ccc(C(=O)Nc2cccnc2)cc1`?
NS1 inh: -44%; RE007 growth inh: -21%; SARS PLP yeast: -9%; Marburg entry inh: 4µM*; LASV entry inh: inconclusive; StopGo reporter: -12%

What do the screens show for `COc1cccc(-c2nc(CS(=O)(=O)CC(=O)N3CCN(C4CCCCC4)CC3)c(C)o2)c1`?
NS1 inh: -8%; RE007 growth inh: -9%; SARS PLP yeast: 5%; Cruzain inh Det: 1.9%; StopGo reporter: -17%; Cruzain inh noDet: -5%

How did O=C(Nc1ccc2c(c1)CCC2)C1CCN(c2c3c(nc4ncnn24)CCC3)CC1 do in these assays?
NS1 inh: inconclusive; RE007 growth inh: -6%; SARS PLP yeast: 1%; Marburg entry inh: inconclusive; LASV entry inh: inconclusive; Cruzain inh Det: -6.3%; StopGo reporter: inconclusive; Cruzain inh noDet: inconclusive

What do the screens show for `CCCNc1c(NS(=O)(=O)c2c(F)c(F)c(F)c(F)c2F)c(=O)oc2ccccc12`?
NS1 inh: 13%; RE007 growth inh: 2%; SARS PLP yeast: -5%; StopGo reporter: -7%

What do the screens show for `CC(Oc1ccc(-n2cnnn2)cc1)C(=O)O` (centres undefined)?
RE007 growth inh: 2%; SARS PLP yeast: 0%; Marburg entry inh: -16%[46.1 µM]; LASV entry inh: -1%; StopGo reporter: 5%

How did CCc1cc2c(=O)n(CCCOC)c(SCC(=O)Nc3oc(C)c4c(C)n[nH]c(=O)c34)nc2s1 do in these assays?
RE007 growth inh: 1%; SARS PLP yeast: -1%; Marburg entry inh: 6%[46.1 µM]; LASV entry inh: 18%; StopGo reporter: 20%

What do the screens show for `CCOCCn1c(CN2CCN(CC)CC2)nc2c1c(=O)n(C)c(=O)n2C`?
NS1 inh: 0%; RE007 growth inh: -9%; SARS PLP yeast: 8%; Marburg entry inh: -44%; LASV entry inh: 5%; Cruzain inh Det: 2.0%; StopGo reporter: -23%; Cruzain inh noDet: 7%

Results for CCOc1ccc(C(=O)N2CCC(c3nnc(-c4ccccc4OC)o3)CC2)cc1 ?
Marburg entry inh: 0%[46.1 µM]; LASV entry inh: 0%[46.1 µM]; Cruzain inh Det: -0.4%; StopGo reporter: 10%; Cruzain inh noDet: inconclusive

Results for COc1ccc2nc(C)cc(SCC(=O)NNC(=O)COc3cccc4ccccc34)c2c1 ?
NS1 inh: 26%; RE007 growth inh: 7%; SARS PLP yeast: 6%; Marburg entry inh: 6%; LASV entry inh: inconclusive; Cruzain inh Det: inconclusive; StopGo reporter: inconclusive; Cruzain inh noDet: -29%

How did Cc1c(C(=O)Nc2ccc(-n3c(C)nc4ccccc4c3=O)cc2)cccc1[N+](=O)[O-] do in these assays?
LASV entry inh: 6%[46.1 µM]; Cruzain inh Det: -0.2%; StopGo reporter: inconclusive; Cruzain inh noDet: -3%

How did O=C(CCn1cnnn1)Nc1ccc(Cl)c(Cl)c1 do in these assays?
NS1 inh: 8%; RE007 growth inh: 0%; SARS PLP yeast: 1%; Marburg entry inh: -53%[46.1 µM]; LASV entry inh: inconclusive; StopGo reporter: -7%

How did COc1cc(Cl)ccc1OCc1cc(C(=O)N2C[C@H]3CC[C@H]2C3)no1 do in these assays?
NS1 inh: -33%; RE007 growth inh: 3%; SARS PLP yeast: -1%; Marburg entry inh: -27%; LASV entry inh: 6%; StopGo reporter: 14%

Results for C#CCNC(=O)C1=C[C@H](C(C)(C)C)C[C@H](OCc2ccc(CO)cc2)O1 ?
NS1 inh: -5%; RE007 growth inh: -4%; SARS PLP yeast: -2%; StopGo reporter: 8%

How did CCN(CC(=O)Nc1c(F)cccc1F)C(=O)c1cccc(-n2cnnn2)c1 do in these assays?
RE007 growth inh: 0%; SARS PLP yeast: 2%; Marburg entry inh: 11%; LASV entry inh: 2%; StopGo reporter: -2%

Results for CCn1c(SCC(=O)NNC(=O)c2ccc(OC)cc2)nnc1-c1ccco1 ?
NS1 inh: 9%; RE007 growth inh: 4%; SARS PLP yeast: -1%; Marburg entry inh: -19%[46.1 µM]; LASV entry inh: 15%; StopGo reporter: -12%

Results for CCOC(=O)C1=NN(c2ccc(C)cc2)C2(S1)SC(C(C)=O)=C(C)N2c1ccccc1 (centres undefined) ?
NS1 inh: -9%; RE007 growth inh: -15%; SARS PLP yeast: -2%; Marburg entry inh: inconclusive; LASV entry inh: inconclusive; Cruzain inh Det: 0.4%; StopGo reporter: -24%; Cruzain inh noDet: -5%

Results for O=c1c(Oc2ccccc2Br)c(C(F)(F)F)oc2c(CN3CCCC3)c(O)ccc12 ?
NS1 inh: 0%; RE007 growth inh: -13%; SARS PLP yeast: -8%; Marburg entry inh: 13%; LASV entry inh: -12%; Cruzain inh Det: -5.9%; StopGo reporter: -7%; Cruzain inh noDet: 8%

What do the screens show for `C[N+]12CCCCC1C(COC(=O)c1ccc3c(c1)OCO3)CCC2` (centres undefined)?
NS1 inh: -2%; RE007 growth inh: 4%; SARS PLP yeast: 0%; Marburg entry inh: 4%; LASV entry inh: -13%; Cruzain inh Det: 1.1%; Cruzain inh noDet: 10%

Results for CC(NC(=O)Cc1ccc(NC(=O)N2CCSc3ncccc32)cc1)c1ccccc1 (centres undefined) ?
LASV entry inh: -7%[46.1 µM]; Cruzain inh Det: -11%; StopGo reporter: -25%; Cruzain inh noDet: 17%

Results for Cc1c(CC(=O)N[C@@H](C)C(=O)O)c(=O)oc2cc3oc4c(c3cc12)CCCC4 ?
NS1 inh: 6%; RE007 growth inh: -2%; SARS PLP yeast: 0%; StopGo reporter: -17%

What do the screens show for `C/C(=N\NC(=O)c1ccccc1NC(=O)c1ccc(Cl)cc1)c1ccncc1`?
RE007 growth inh: 4µM*; SARS PLP yeast: -22%; Marburg entry inh: inconclusive; LASV entry inh: inconclusive; StopGo reporter: 3.2µM*
